Bioassay records deposited in PubChem BioAssay by several laboratories.
Rce1 inh – inhibitors of yeast Ras-converting enzyme; calls only; 290,000 tested, 0.27% active; AID 2563; Q03530; yeast membranes, quenched prenylated peptide cleavage fluorescence;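 active = fall in fluorescence gain of 50% or more versus controls, with final raw signal at or below 3038400; inconclusive = same 50% fall but final raw signal above 3038400; inactive = fall in fluorescence gain under 50%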;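 also: plate controls were neutral control wells for no effect and wells lacking membranes for full effect; tested at 10 µM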
MT1-MMP act inh – blocks activation of human MT1-MMP; P50281; HT1080 RFP-PRO-GFP cells, GFP/RFP ratio fluorescence, overnight; percent of plate control window, DMSO zero; GFP/RFP ratio change, % at 20 µM; 360,000 tested, 0.061% active;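 active = GFP/RFP ratio change of at least 30% with cell ATP level not reduced by more than half and red fluorescence within 50% of control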; also: strong numbers were not always called active
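Assay system: HT1080 RFP-PRO-GFP cells | Dosing: 20 µM single dose, 1% DMSO | Incubation: Cells overnight before dosing, compound overnight, 37 °C, 5% CO2 | Evaluation: GFP/RFP fluorescence ratio | Control set: DMSO-only wells and HT1080 RFP-L50D-GFP cell wells as references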
eIF4H inh – inhibitors of RNA binding by human eIF4H | Q15056 | eIF4H fluorescence polarization binding assay | inhibition, % at 35 µM | 290,000 tested, 0.94% active | AID 2012;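 active = 50% or more with normal probe brightness, or confirmed in later tests; inconclusive = above 50% with abnormal brightness, or retests that disagree; inactive = below 50% or failed in later tests; about a fifth of its hits are not listed in these tables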;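 also: calls also rest on retests at 20 µM and on dose response follow-up; 0% = protein and probe with vehicle and 100% = probe without protein; strong numbers were not always called active; many hits fall short of the cut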
PABP polyA inh – blocks human PABP binding to poly(A) RNA | P11940 | fluorescence polarization | inhibition, % at 35 µM | 290,000 tested, 1% active | AID 2014;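 active = 50% or more with normal probe brightness, or confirmed in later tests; inconclusive = above 50% with abnormal brightness, or retests that disagree; inactive = below 50% or failed in later tests; about a fifth of its hits are not listed in these tables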;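 also: calls also rest on retests at 20 µM and on dose response follow-up; controls were probe without protein and protein plus probe with vehicle; some compounds called inactive have numbers as strong as hits; many hits fall short of the cut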
Target sequence (P11940 whole entry, looked up): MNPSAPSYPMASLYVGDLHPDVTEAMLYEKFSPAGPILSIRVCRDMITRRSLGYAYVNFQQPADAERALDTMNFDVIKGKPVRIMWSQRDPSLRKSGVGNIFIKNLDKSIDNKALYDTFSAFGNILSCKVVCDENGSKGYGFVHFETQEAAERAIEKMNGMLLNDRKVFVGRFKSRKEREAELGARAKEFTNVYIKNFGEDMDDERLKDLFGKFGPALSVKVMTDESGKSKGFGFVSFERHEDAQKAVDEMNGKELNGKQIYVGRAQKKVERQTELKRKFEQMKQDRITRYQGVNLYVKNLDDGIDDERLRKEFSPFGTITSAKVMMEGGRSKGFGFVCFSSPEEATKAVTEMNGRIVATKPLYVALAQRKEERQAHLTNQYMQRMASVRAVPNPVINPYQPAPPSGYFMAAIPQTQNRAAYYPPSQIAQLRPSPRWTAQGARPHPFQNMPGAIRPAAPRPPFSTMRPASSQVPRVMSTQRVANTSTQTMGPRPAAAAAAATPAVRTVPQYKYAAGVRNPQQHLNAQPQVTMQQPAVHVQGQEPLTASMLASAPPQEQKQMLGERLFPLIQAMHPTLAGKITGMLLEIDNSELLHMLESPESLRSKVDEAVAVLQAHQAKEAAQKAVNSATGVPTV
Yeast UUG start – yeast start codon fidelity modulation. S. cerevisiae UUG-firefly luciferase reporter, luminescence/redox ratio. 350,000 tested, 0.13% active. activity score, % at 18.7 µM;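 active = replicate mean at a twofold rise or more, about +100% in these data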;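 also: firefly luciferase made from a UUG start codon reports start codon fidelity; reporter light over untreated wells divided by growth signal over untreated wells; some hits fall short of that in this replicate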
HIV Env fusion – HIV envelope-mediated fusion inhibition; HeLa-JRFL Env/CEM21 cell fusion, luciferase; AID 651610; inhibition, % at 12.3 µM; 360,000 tested, 1.1% active;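 active = mean replicate inhibition score of at least 50 and every replicate individually at or above 50; inconclusive = only one of the two criteria met; inactive = mean below 50 and not all replicates reaching 50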;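 also: 0% = plate neutral controls and 100% = maraviroc near 300 nM; one replicate is shown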
CSC inhib – blocks cancer stem cells; cancer stem cell-like cells viability, luminescence; AID 2717; inhibition, % at 7.5 µM; 300,000 tested, 1.1% active;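 active = mean at 75% or more and at least half the replicates too; inconclusive = mean and replicates disagree; tested in HMLE shEcad cells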;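 also: 0% = median of negative and 100% = median of positive control wells; the first replicate is given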
MT1-MMP act inh RFP – further read-out of MT1-MMP act inh, marked with its call; RFP signal change, %; measured here: RFP expression control read;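 0 = vehicle wells; hits needed this value within 50% of zero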
* = called active by the depositor; i = inactive; u = inconclusive; x = no result given; + = active, no number. An excerpt, so the mix of outcomes need not match the whole.

SMILES	Rce1 inh	MT1-MMP act inh	MT1-MMP act inh RFP	eIF4H inh	PABP polyA inh	Yeast UUG start	HIV Env fusion	CSC inhib
O=C(CCc1c[nH]c2ccccc12)OCc1cccc(C(F)(F)F)c1	i	3	4	4	-1	-6	4	-6
Cc1cc(C)c(OCC(=O)Nc2ccc(NC(=O)c3ccco3)cc2)c([N+](=O)[O-])c1	x	4	0	37	-1	-17	19	-8
COC(=O)CSc1nnc(CNC(=O)c2cc(OC)c(OC)c(OC)c2)n1C	i	4	1	-2	-4	8	16	-6
Cc1ccc(NC(=O)COC(=O)c2ccn(C)n2)cc1	i	0	5	3	-16	-3	x	-6
NC(=O)CC(NC(=O)c1ccccc1)c1ccc(NCCOc2ccccc2)c([N+](=O)[O-])c1 (centres undefined)	i	11	-6	-10	10	-23	-3	-1
COc1ccccc1N(CC(O)COc1c(C)cc(C)cc1C)S(=O)(=O)c1ccccc1 (centres undefined)	i	-18	-27	-3	-3	-1	x	3
O=C(CSc1nc(=O)n(CCCN2CCOCC2)c2c1CCCC2)Nc1ccc(F)cc1	i	2	1	x	x	-15	-3	-18
COc1ccc(-c2cn(-c3ccc(SC(F)F)cc3)c3[n+]2CCC3)cc1OC	i	-3	3	4	-7	x	x	-7
COc1ccccc1-c1cc(C(F)(F)F)n2ncc(S(=O)(=O)c3ccccc3)c2n1	+	-4	-3	2	2	-10	u	5
Cc1ccccc1CS(=O)(=O)CCC(=O)NCc1ccccn1	i	1	7	-5	3	-35	x	-6
O=C(Nc1ccnn1C1CCN(C(=O)c2cccc(C(F)(F)F)c2)CC1)C1CC1	i	-3	-6	-9	-2	2	-17	-15
CCCCCc1ccc(S(=O)(=O)NCCc2ccncc2)cc1	i	-11	-18	8	-10	17	46	7

Already shown: an excerpt of the list.
SMILES	Rce1 inh	MT1-MMP act inh	MT1-MMP act inh RFP	eIF4H inh	PABP polyA inh	Yeast UUG start	HIV Env fusion	CSC inhib
O=C(CCc1c[nH]c2ccccc12)OCc1cccc(C(F)(F)F)c1	i	3	4	4	-1	-6	4	-6
Cc1cc(C)c(OCC(=O)Nc2ccc(NC(=O)c3ccco3)cc2)c([N+](=O)[O-])c1	x	4	0	37	-1	-17	19	-8
COC(=O)CSc1nnc(CNC(=O)c2cc(OC)c(OC)c(OC)c2)n1C	i	4	1	-2	-4	8	16	-6
Cc1ccc(NC(=O)COC(=O)c2ccn(C)n2)cc1	i	0	5	3	-16	-3	x	-6

Back to the main list, starting 2 compounds before the break.
SMILES	Rce1 inh	MT1-MMP act inh	MT1-MMP act inh RFP	eIF4H inh	PABP polyA inh	Yeast UUG start	HIV Env fusion	CSC inhib
O=C(Nc1ccnn1C1CCN(C(=O)c2cccc(C(F)(F)F)c2)CC1)C1CC1	i	-3	-6	-9	-2	2	-17	-15
CCCCCc1ccc(S(=O)(=O)NCCc2ccncc2)cc1	i	-11	-18	8	-10	17	46	7
Cc1ccccc1NC(=O)CSc1nc(O)cc(=O)n1C	i	-1	5	1	-9	2	6	0
COc1ccc(S(=O)(=O)N2CCN(c3ncccn3)CC2)cc1OC	i	2	1	-6	-4	-6	13	-7
N#Cc1ccc(NC(=S)Nc2ccccc2)cc1	i	5	9	7	6	x	-3	13
CCCCn1c(SCC(=O)NCc2ccccc2)nc2ccc(N3CCOCC3)cc2c1=O	i	2	-4	-1	9	-9	-6	x
O=C(NC1CCCC1)[C@@H]1CSC2c3ccccc3C(=O)N21 (some centres undefined)	i	-3	-1	x	x	x	-2	5
O=C(C1CCCO1)N1CCN(C(=S)Nc2cccc(F)c2)CC1 (centres undefined)	i	2	3	-9	0	-13	0	8
Cc1sc2ncnc(SCC(=O)c3ccc(O)cc3O)c2c1C	i	-3	-2	-3	2	x	7	17
C/C(NCCc1ccc(O)cc1)=C1/CCOC1=O	x	-2	2	x	x	2	0	x
CCN1CCN(C(=O)c2ccc(CN(c3ccc(C)c(C)c3)S(C)(=O)=O)cc2)CC1	i	-17	3	0	-12	5	-13	53
C[C@H]1CC[C@@]2(O[C@H](CCO)C[C@@H](O)[C@@H]2O)O1	i	10	9	-9	-6	-18	-37	-13
CCCn1nc(C(=O)OCC(=O)c2c(N)n(C)c(=O)n(C)c2=O)c2ccccc2c1=O	i	-1	-6	-7	-2	x	13	-8
CN(CCc1cnn(C)c1)Cc1cn(C)nc1-c1ccc2c(c1)OCCO2	i	-6	-3	4	-4	x	-64	17
Cc1csc(SCC(=O)NC(C)C2CC3CCC2C3)n1 (centres undefined)	i	0	-1	x	x	-11	-16	0
COc1cccc(CC(=O)Nc2nc(-c3ccc(OC)c(OC)c3)cs2)c1	i	-4	-10	7	4	-4	22	20
Cc1csc(SC(C)c2nc3scc(-c4ccccc4)c3c(=O)[nH]2)n1 (centres undefined)	i	-3	-7	-3	-6	x	25	5
Cc1ccc(NC(=O)/C=C/c2ccc(S(=O)(=O)N3CCOCC3)cc2)cc1S(=O)(=O)N(C)C	x	-2	-26	x	x	-6	-4	x
COc1ccc(S(=O)(=O)NC(C)C(=O)NCc2cccnc2)cc1OC (centres undefined)	i	-1	0	3	0	-4	8	-5
Cc1ccc(Cn2c(=N)c(C(=O)NCc3ccco3)cc3c(=O)n4ccccc4nc32)cc1	i	-16	-7	75*	60*	7	-105	8
Clc1ccccc1-c1nn2c(-c3ccncc3)nnc2s1	i	-14	-11	0	6	x	x	1
S=C1NC[C@H](Cc2ccccc2)N1CC1CCN(CCCCc2ccccc2)CC1	x	5	4	x	x	-16	20	x
COC(C/C=C/[C@@H](O)COCc1ccccc1)OC	i	2	5	-11	-7	-11	-15	5
O=C(NCCc1ccccc1)c1cc([N+](=O)[O-])ccc1N1CCOCC1	x	-3	2	x	x	0	19	-14
Cc1ccc(S(=O)(=O)Nc2ccccc2/C=N/c2nc3ccccc3n2C(C)C)cc1	x	1	-1	-2	-8	x	x	27
CCN(CC)CCNC(=O)c1ccc(Sc2ccc(C)cc2)c(NC(C)=O)c1	i	2	-2	0	8	x	5	5
OCc1ccc(O)c2ncccc12	i	-3	-15	12	-3	-24	x	-3
COc1ccccc1C(=O)NCCC(=O)NNC(=O)C1COc2ccccc2O1 (centres undefined)	i	-2	-1	x	x	x	-3	-2
O=C(NNC(=S)NC(=O)c1sc2ccccc2c1Cl)c1ccc(Cl)cc1	i	0	-4	16	-6	-28	x	66
C[C@@H](C(=O)OCC(=O)Nc1cc(S(=O)(=O)N2CCOCC2)ccc1Cl)N1C(=O)C2CCCCC2C1=O (some centres undefined)	i	-3	-3	1	3	-12	-23	10
O=C(Nc1ccc(OC(F)(F)F)cc1)C1CCCN(S(=O)(=O)c2cnc[nH]2)C1 (centres undefined)	i	5	3	0	8	-10	x	-13
C=CCN1CN(CCc2ccccc2)CNC1=S	i	4	5	0	-3	-18	9	6
COCCCNC(=O)CC(NS(=O)(=O)c1ccc(F)cc1)c1ccc(OC)cc1 (centres undefined)	i	2	1	4	-1	x	x	7
CC(NC(=O)c1ccco1)c1nc(-c2ccc(C(C)(C)C)cc2)no1 (centres undefined)	i	1	-8	-10	8	-10	-8	4
NC(=S)c1ccc[n+]([O-])c1	x	-4	0	x	x	-19	27	x
COc1cccc(/C=C/C(=O)Nc2ccc3c(c2)OCCO3)c1	i	5	-1	-3	-13	-30	-248	17
COc1ccc(CNC(=O)C(C)OC(=O)C23CC4CC(CC(O)(C4)C2)C3)cc1 (centres undefined)	i	4	4	-8	-9	x	5	-13
Cc1cc(OCC(=O)N(Cc2ccco2)C2CCS(=O)(=O)C2)ccc1Cl (centres undefined)	i	-1	5	-2	-2	-4	20	-8
CC(=O)Nc1cccc(CNCc2cccc(NC(C)=O)c2)c1	i	1	0	-1	-10	x	14	-2
Cc1ccc(-c2cc(NC(=O)c3ccccc3)on2)cc1	i	4	-2	-8	-7	-17	-45	15
COc1ccccc1CN1CCNC(=O)C1CC(=O)NCCC1=CCCCC1 (centres undefined)	i	-4	4	15	2	-13	25	2
Cc1cccc(N2CCN(S(=O)(=O)c3ccc4c(c3)NC(=O)CS4)CC2)c1C	i	2	-9	-9	3	-1	1	30
CCc1ccccc1N1CC23C=CC(O2)C(C(=O)OC)C3C1=O (centres undefined)	i	0	4	-3	-3	-16	2	7
Cc1nn(C)cc1NC(=O)c1cc2nc(-c3ccco3)cc(C(F)(F)F)n2n1	i	2	0	-14	-4	-5	-3	6
COc1cc(SC)ccc1C(=O)Nc1c(C)cccc1C	i	2	1	31	7	x	-32	0
CCCNC(=S)Nc1ccc(Cl)cc1Cl	i	3	1	-3	-3	x	-4	5
CCOC(=O)Cc1csc(NS(=O)(=O)c2ccc(Br)cc2)n1	i	-3	3	2	2	x	14	-11
CC1(C)OC(=O)C(=NNc2ccccc2[N+](=O)[O-])C(=O)O1	i	4	-3	-8	-6	-25	0	13
O=C(c1ccc(Cl)c(S(=O)(=O)N2CCc3ccccc3C2)c1)N1CCN(c2ccccc2)CC1	i	0	-22	-2	12	x	21	4
O=C(Cc1cccs1)N1CCN(S(=O)(=O)c2ccc(F)c(F)c2)CC1	x	1	1	x	x	-1	-3	x
Cc1ccc(Cc2nnc(SCC(=O)Nc3ccc(C)cc3C)[nH]c2=O)cc1	i	3	4	x	x	-16	2	3
CCC(=O)Nc1cccc(NC(=O)c2ccc3c(c2)OCCO3)c1	i	-1	0	9	4	-18	x	x
O=C(NCc1cccs1)c1cc2c(s1)CS(=O)(=O)C2	i	-3	-1	-1	14	x	x	3
CCn1c(SCC(=O)c2ccc(C)cc2)nnc1-c1ccncc1	i	2	0	2	6	1	-22	-6
Cc1ccc(NC(=S)/N=C(\N)Nc2nc(C)c3cc(C)ccc3n2)c(C)c1	i	-11	-12	-4	-16	-10	10	11
COc1ccc(C(=O)Nc2ccc(Cl)cc2C(=O)NCCO)cc1	i	8	2	-8	-2	-17	x	13
CC(=O)Nc1cccc(-c2nnc(SCC(=O)N3CCCCC3)n2C)c1	i	10	2	-6	-14	-1	-6	-4
Cc1ccc(-c2nc(CN(Cc3cnn(C)c3)C(C)C)c(C)o2)o1	i	-4	2	9	-2	x	-4	7
COCc1nnc(NC(=O)COc2ccc3c(c2)OCO3)s1	x	0	-3	-9	1	-7	0	-3
N=C1C(c2ccccc2)=C(O)CN1c1ccccc1	i	2	1	16	6	-24	-5	0
COc1ccc(-c2noc(CCN3C(=O)c4ccccc4C3=O)n2)cc1OC	i	9	-1	-5	-2	-15	7	-5
COc1ccc(-c2nn(-c3ccccc3)cc2CN2CCCO2)c(F)c1	i	-4	0	-1	-6	10	7	-6
Other records.
SMILES	Rce1 inh	MT1-MMP act inh	MT1-MMP act inh RFP	eIF4H inh	PABP polyA inh	Yeast UUG start	HIV Env fusion	CSC inhib
Cc1ccc(S(=O)(=O)N2CCC(C(=O)N[C@@H](C)C(=O)NCC3CCCO3)CC2)cc1 (some centres undefined)	i	0	3	-7	10	-15	-50	6
CCc1cc(=O)oc2cc(C)cc(OCC(=O)NCCCN3CCOCC3)c12	i	-2	3	-14	-3	-5	-6	-36
CCCCN(C(C)=O)c1c(CC)nc2ccc(C(=O)NCc3cccs3)cn12	x	-3	1	x	x	-10	22	x
N#Cc1ccccc1NC(=O)CSC1=Nc2ccccc2C2CC=NN12 (centres undefined)	i	-3	0	-1	-7	6	16	10
Cc1ccc2c(=O)c(C(=O)c3ccc(F)cc3)cn(CC(=O)NCc3ccco3)c2n1	i	-1	1	20	0	0	-12	-1
Cc1cccc(/N=C/c2nc(-c3ccccc3Br)oc2O)n1	i	0	3	-4	-12	2	-14	-2
CC(=O)Nc1ccc(OCC(=O)c2cc(C)ccc2C)cc1	i	-2	0	5	-6	x	x	3
Cc1ccc(C(=O)CNc2ccccc2)cc1	i	0	1	-6	2	-23	15	7
